High-throughput results: PubChem, several laboratories
GALR2 ag: GALR2 receptor agonists, primary screen, cell-based; Galanin receptor type 2 (Homo sapiens), O43603; activation, %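 (tested at 5 µM)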; 140,000 tested, 0.48% active; AID 803, 2007; GALR2-expressing cells, agonist activation read-out;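 active = above mean plus 3 SD of all compounds, about 5% in these data, not always enough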;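 also: 0% = vehicle buffer wells and 100% = reference agonist at full effect; tested in CHO reporter cells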
HSV augment: enhancers of HSV replication in host cells, fold increase, host cell viability. HSV replication augmentation in cells. maximum fold increase. 220,000 tested, 0.005% active. AID 1956, 2009;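 active = peak rise of 1.5-fold or more in the series; tested in PC3 cells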;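 also: first round at 10 µM; read as green reporter fluorescence; hits show the peak of a series up to 25 µM; 1 = signal of infected wells without compound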
Insulin prom inh: inhibitors of insulin promoter-driven GFP, primary screen, imaging, TRM-6 cells (human fetal islet line), eGFP reporter, cell count. inhibition, % at 2 µM. AID 1273, 2008. 130,000 tested, 0.9% active. reporter expression induced with tamoxifen;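 active = inhibition above the mean plus 3 SD, with well images judged a real hit on visual review, cut at about 60% in these data, passing the limit was not always enough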
RGS16-Gao HTS: modulators of RGS16 binding to Galphao, primary screen, biochemical, human proteins, multiplexed bead flow cytometry. binding response (% of control), % at 10 µM. 220,000 tested, 0.38% active. bead-based flow cytometry RGS16-Galphao binding, fluorescence; actives lie on both sides. AID 1441, 2008;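 active = below 25% or above 175%, edge rows of some plates excepted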;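 also: Galphao activated by GDP with aluminum fluoride before binding; 100% = wells without compound and 0% = beads without RGS; some results beyond the cut were filed as inactive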
PKD1 inh: inhibitors of human PKD1 kinase, biochemical, fluorescence polarization | AID 797, 2007 | inhibition, %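 (about 10 µM by stock and volumes)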 | Serine/threonine-protein kinase D1 (Homo sapiens), Q15139 | 200,000 tested, 0.056% active | PKD1 kinase fluorescence polarization assay;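 active = inhibition of 50% or more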;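 also: controls were vehicle for no effect and a reference inhibitor for full effect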
Target sequence (Q15139 whole entry, looked up): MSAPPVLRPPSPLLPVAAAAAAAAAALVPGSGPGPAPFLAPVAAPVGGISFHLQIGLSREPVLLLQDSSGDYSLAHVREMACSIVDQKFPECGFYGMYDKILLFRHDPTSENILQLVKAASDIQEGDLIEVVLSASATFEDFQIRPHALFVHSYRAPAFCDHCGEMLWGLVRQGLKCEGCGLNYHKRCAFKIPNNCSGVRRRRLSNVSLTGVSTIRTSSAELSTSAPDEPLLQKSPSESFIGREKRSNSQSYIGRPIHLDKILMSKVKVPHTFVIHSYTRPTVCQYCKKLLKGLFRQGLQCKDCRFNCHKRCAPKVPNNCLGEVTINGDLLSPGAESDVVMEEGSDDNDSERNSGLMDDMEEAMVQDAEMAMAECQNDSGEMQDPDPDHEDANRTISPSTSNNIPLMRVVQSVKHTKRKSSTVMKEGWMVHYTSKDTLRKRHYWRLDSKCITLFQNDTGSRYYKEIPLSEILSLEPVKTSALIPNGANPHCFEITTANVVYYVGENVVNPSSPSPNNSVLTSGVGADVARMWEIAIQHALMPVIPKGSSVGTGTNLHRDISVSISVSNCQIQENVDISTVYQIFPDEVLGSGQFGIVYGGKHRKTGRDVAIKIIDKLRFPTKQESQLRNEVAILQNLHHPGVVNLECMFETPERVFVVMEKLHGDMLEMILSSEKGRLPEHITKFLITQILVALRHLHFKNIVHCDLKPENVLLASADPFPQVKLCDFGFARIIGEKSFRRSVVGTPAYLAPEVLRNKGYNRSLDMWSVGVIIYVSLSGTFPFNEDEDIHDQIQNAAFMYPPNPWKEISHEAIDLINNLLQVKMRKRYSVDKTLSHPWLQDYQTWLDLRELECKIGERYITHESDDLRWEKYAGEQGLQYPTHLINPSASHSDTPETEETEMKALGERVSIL
Insulin prom inh cell count: also measured in Insulin prom inh; calls as there; normalized cell count, %; measured here: cell count, toxicity; reference of the scale not given here;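 cells exposed to compound for 48 h; stained nuclei by imaging scaled within each plate; lower means fewer cells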
HSV augment primary fold: second read-out of HSV augment, no call of its own (marks repeat the call); fold increase; compound at 10 µM; measured here: primary screen fold increase 10 uM; tested in PC3 cells;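 GFP signal in the first replicate; 1 = infected wells without compound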
Starred values were filed as active, the others as inactive; i = inactive; · = no result given.

SMILES | GALR2 ag | HSV augment | HSV augment primary fold | Insulin prom inh | Insulin prom inh cell count | RGS16-Gao HTS | PKD1 inh
CCN(CC(=O)Nc1c(F)cccc1F)C(=O)CCc1ccc(OC)cc1 | · | i | 0.91 | · | · | 98 | -1
CCOc1ccc(C(=O)/C=C/c2ccccc2C(F)(F)F)cc1 | -2.4 | i | 1.2 | · | · | 102 | 4
CCOC(=O)C1CCN(C(=O)Cn2cccc2C(=O)c2ccccc2)CC1 | -0.4 | i | 0.87 | -57 | 58 | 103 | 2
COc1ccc(C)cc1NC(=O)Nc1cnccn1 | · | i | 1 | -74 | 137 | 97 | -1
COc1cccc(/C=C2/SC(=O)N(C)C2=O)c1OCc1ccc(C(=O)O)cc1 | · | i | 0.97 | -18 | 151 | 102 | 7
CC1(C)CC(=O)c2cc(OCC(=O)NCCN3CCOCC3)ccc2O1 | -1.5 | i | 1.1 | · | · | 103 | 4
O=C(Nc1ccc(OC(F)(F)F)cc1)Nc1cccnc1 | · | i | 0.92 | · | · | 108 | ·
Cc1nn(C)c(Cl)c1CN1CCC(CO)(CC2CCCCO2)CC1 (configuration not stated) | · | i | 0.99 | 0 | 131 | 102 | 2
Cc1cc(NC(=S)N(CCCN2CCN(C)CC2)Cc2ccco2)ccc1Cl | · | i | 0.9 | · | · | 94 | -4
O=C(CSc1cc(Cl)ccc1Cl)NCC1CCCO1 (configuration not stated) | -1.5 | i | 1.1 | · | · | 99 | 4
O=C(COC(=O)c1ccccc1)NCC1CCCO1 (configuration not stated) | -2.0 | i | 1 | -27 | 94 | 110 | -2
CCOC(=O)C1(Cc2ccccc2)CCN(Cc2ccc(COC)o2)CC1 | · | i | 0.99 | · | · | 101 | -8
COC(=O)C1=C(COc2ccc(F)cc2)NC(=O)NC1c1ccc(C)cc1C (configuration not stated) | 1.9 | i | 0.95 | · | · | 101 | 11
CCOc1ccc(C(=O)Nc2ncccc2Cl)cc1 | · | i | 0.99 | · | · | 107 | 5
CC(OC(=O)c1nsc(Cl)c1Cl)C(=O)NCc1cccs1 (configuration not stated) | -3.4 | i | 1 | 0 | 165 | 100 | -6
CC(=O)c1ccc(N2CCN(c3ccc(S(=O)(=O)N4CCN(C)CC4)cn3)CC2)cc1 | -1.6 | i | 0.85 | 14 | 77 | 98 | -2
O=C(Nc1ccccc1-c1ccccc1)NC1CC2CCCC(C1)N2CCc1ccccc1 (configuration not stated) | 0.7 | i | 0.7 | · | · | 64 | 4
Cc1ccc(-c2csc(CC(N)=O)n2)cc1 | · | i | 0.92 | -33 | 103 | 93 | 2
Cc1cc(NC(=O)CSc2nnc(COc3ccccc3)n2Cc2ccco2)no1 | -0.6 | i | 1 | -64 | 89 | 94 | -11
Cc1ccc(C)c(Cn2nnc3c(=O)[nH]c(C4CCCN(C(=O)C5CCCCC5)C4)nc32)c1 (configuration not stated) | -0.7 | i | 0.87 | -7 | 154 | 100 | -6
CC(=O)Nc1ccc(OC(=O)c2cccs2)cc1 | -0.7 | i | 1.1 | -18 | 122 | 99 | -8
O=C1CCC2(CC1)NC(=O)N(c1ccccc1)N2 | · | i | 1 | -60 | 77 | 100 | -2
c1coc(CNc2c3c(nc4ccccc24)CCC3)c1 | -0.9 | i | 1.1 | · | · | 102 | 5
COC(=O)C1=C(C)NC(=O)CC1c1ccc(F)c(Br)c1 (configuration not stated) | -2.0 | i | 0.87 | -89 | 101 | 102 | -3
CCC1(CC)Cc2ccccc2-c2nc(NCCO)[nH]c(=O)c21 | -4.3 | i | 0.86 | 40 | 67 | 101 | 0

Overlap with the part before: two compounds, followed by the next part.
SMILES | GALR2 ag | HSV augment | HSV augment primary fold | Insulin prom inh | Insulin prom inh cell count | RGS16-Gao HTS | PKD1 inh
COC(=O)C1=C(C)NC(=O)CC1c1ccc(F)c(Br)c1 (configuration not stated) | -2.0 | i | 0.87 | -89 | 101 | 102 | -3
CCC1(CC)Cc2ccccc2-c2nc(NCCO)[nH]c(=O)c21 | -4.3 | i | 0.86 | 40 | 67 | 101 | 0
N#Cc1c(N2CCCC(O)C2)nc(N)c2c(N)nc3c(c12)CC(=O)N3C12CC3CC(CC(C3)C1)C2 (configuration not stated) | -1.8 | i | 1.2 | -26 | 142 | 88 | 3
CC(C)(C)C(=O)Nc1cccc(-c2cc(-c3c(Cl)cccc3Cl)no2)c1 | · | i | 0.96 | · | · | 99 | ·
Fc1ccc2nc(N3CCOCC3)sc2c1 | · | i | 1 | · | · | 100 | 0
COc1ccc2[nH]c3c(=O)n(CCc4ccccc4)cnc3c2c1 | · | i | 0.96 | · | · | 97 | ·
O=C(CN1CCCC1)Nc1ccc(NC(=O)Nc2ccccc2Cl)cc1 | 0.7 | i | 0.97 | 5 | 101 | 103 | 0
COc1ccc(C(=O)N/N=C(/C)c2ccc(N3CCCCC3)cc2)cc1 | -0.7 | i | 0.82 | 0 | 94 | 103 | -1
O=C(Nc1ccc(Cl)cc1)NC1CCCc2ccccc21 (configuration not stated) | -2.6 | i | 0.85 | -49 | 91 | 101 | -6
CCCCCCCCCCCCOC(=O)C[N+](C)(C)C | · | i | 0.93 | · | · | 107 | ·
Clc1cccc(Cl)c1-c1noc(-c2ccno2)n1 | · | i | 0.96 | · | · | 97 | ·
c1cnc(N2CCN(c3cnccn3)CC2)nc1 | · | i | 0.89 | · | · | 101 | 6
Cc1ccc(S(=O)(=O)N2CCCCC2)cc1NC(=O)Cn1c(=O)cnc2ccccc21 | · | i | 0.99 | · | · | 106 | 5
Cc1c(C2C(C#N)=C(N)OC3=C2C(=O)CCC3)cnn1C (configuration not stated) | -0.8 | i | 0.91 | · | · | 132 | -5
O=C(CCC(=O)Nc1ccccc1)NNC(=O)CCc1ccccc1 | · | i | 1.1 | 58 | 68 | 153 | -7
c1ccc(-c2nc(-c3ccc(-c4ccon4)s3)no2)cc1 | · | i | 1.1 | · | · | 97 | ·
C/C(=N\Nc1ccc(S(=O)(=O)Nc2ccccc2)cc1[N+](=O)[O-])c1ccc(N2CCOCC2)cc1 | · | i | 1.1 | · | · | 96 | 4
Cc1csc(Nc2ccccc2)[n+]1C | · | i | 0.72 | 48 | 56 | 121 | 1
CCN(CC)S(=O)(=O)c1ccc(OCC(=O)NCc2ccco2)cc1 | · | i | 0.99 | · | · | 104 | ·
CCc1ccc2oc(=O)cc(CN3CCOCC3)c2c1 | -1.2 | i | 0.98 | -4 | 116 | 99 | -5
CCN(CC)c1ccc(/C=N/NC(=O)c2cnccn2)c(O)c1 | · | i | 0.64 | · | · | 95 | ·
COc1cccc(C2CC(c3ccccc3C)n3nc(N)nc3N2)c1 (configuration not stated) | -1.4 | i | 0.9 | · | · | 101 | -3
Cc1ccc(NS(=O)(=O)c2ccc3c(c2)NC(=O)CC(=O)N3)cc1C | · | i | 0.89 | · | · | 107 | -2
COc1cc(-c2nc(-c3ccc4c(c3)-c3ccccc3S4(=O)=O)c(-c3ccccc3)[nH]2)cc(OC)c1OC | -1.1 | i | 0.92 | 36 | 148 | 109 | -10
COC(=O)c1cnn(C(=O)c2cc(OC)ccc2Br)c1N | -0.5 | i | 1 | -12 | 115 | 99 | -7
CNc1oc(-c2ccccc2Cl)nc1C#N | -2.7 | i | 0.93 | 0 | 84 | 108 | -6
CCOC(=O)c1ccc(N=C2SC(C(=O)NC)CC(=O)N2CCc2ccccc2)cc1 (configuration not stated) | · | i | 0.88 | · | · | 103 | ·

Taken from above.
`CCN(CC(=O)Nc1c(F)cccc1F)C(=O)CCc1ccc(OC)cc1` @ PKD1 inh = -1
`O=C(COC(=O)c1ccccc1)NCC1CCCO1` (configuration not stated) @ Insulin prom inh = -27
`CCc1ccc2oc(=O)cc(CN3CCOCC3)c2c1` @ RGS16-Gao HTS = 99
`O=C(CCC(=O)Nc1ccccc1)NNC(=O)CCc1ccccc1` @ Insulin prom inh cell count = 68
`COc1cccc(/C=C2/SC(=O)N(C)C2=O)c1OCc1ccc(C(=O)O)cc1` @ Insulin prom inh cell count = 151

(cont.)
SMILES | GALR2 ag | HSV augment | HSV augment primary fold | Insulin prom inh | Insulin prom inh cell count | RGS16-Gao HTS | PKD1 inh
O=c1[nH]c(/C=C\c2cccnc2)c([N+](=O)[O-])c(=O)[nH]1 | · | i | 1.1 | · | · | 93 | -6
O=C(/C=C/c1ccco1)NCC1COc2ccccc2O1 (configuration not stated) | · | i | 1.1 | · | · | 97 | ·
CC1CCCC(C)N1NC(=S)Nc1ccc(OC(F)F)cc1 (configuration not stated) | -0.6 | i | 1.1 | -3 | 56 | 78 | -1
CCSc1nnc(-c2cccc(S(=O)(=O)N(C)C)c2)n1-c1cc(OC)ccc1OC | -2.8 | i | 0.93 | 16 | 95 | 100 | -11
CCOc1ccc(CN2CCN(Cc3cc4c(cc3Cl)OCO4)CC2CCO)cc1 (configuration not stated) | · | i | 0.75 | · | · | 83 | ·
COCCCNC(=S)NNC(=O)C1CC1c1ccc(C(C)(C)C)cc1 (configuration not stated) | · | i | 1.1 | i | 60 | 102 | -7
CC(=O)c1cccc(NC(=O)CCS(=O)(=O)c2cccc3nsnc23)c1 | 0.0 | i | 0.89 | -6 | 80 | 94 | -3
CCOC(=O)C(C)(C)NS(=O)(=O)c1ccc(Cl)c([N+](=O)[O-])c1 | -1.0 | i | 0.76 | · | · | 64 | -8
CC(C)Oc1ccc(C(=O)NC(=S)N2CCOCC2)cc1 | -0.7 | · | · | 0 | 131 | 93 | 1
CCCc1nc2ccccc2c(C(=O)OC2CCOC2=O)c1CC (configuration not stated) | -0.9 | i | 0.89 | · | · | 101 | -5
Cn1c(=O)c2c(nc(N3CCOCC3)n2CCCNC2=NCCCCC2)n(C)c1=O | -1.6 | i | 1 | -36 | 94 | 103 | 8
O=C(c1sc2cc([N+](=O)[O-])ccc2c1Cl)N1CCCCC1 | -0.8 | i | 1.1 | · | · | 96 | -10
CN(C)/N=C/c1ccc(OC(=O)c2cccc([N+](=O)[O-])c2)cc1 | · | i | 0.93 | 8 | 92 | 101 | 2
CCc1cc2c(=O)c(-c3ccc(F)cc3)c(C)oc2cc1OCC(=O)O | · | i | 0.99 | · | · | 91 | -2
Cc1cccc(-n2cnc3c(sc4nc(N5CCOCC5)c5c(c43)CCCC5)c2=O)c1 | · | i | 0.9 | · | · | 102 | ·
Cc1ccc(CSc2ncnc3c2cnn3Cc2ccccc2)cc1 | -1.1 | i | 1.1 | 28 | 94 | 102 | -6
C=CCn1c(C)nc2ccccc2c1=O | · | i | 1 | 20 | 133 | 104 | 5
C(=N\Nc1nc(N2CCOCC2)nc(N2CCOCC2)n1)/c1ccncc1 | -0.2 | i | 0.97 | -3 | 118 | 99 | -1
Cc1ccc(C)c(NC(=O)Cc2ccc(S(=O)(=O)N3CCCCC3)s2)c1 | -1.7 | i | 0.79 | · | · | 149 | 2
COc1cc(C)c(/C=C(\C#N)C(=O)Nc2ccc(C)cc2)cc1C(C)C | -1.6 | i | 0.86 | · | · | 101 | 1
CCOC(=O)Cc1csc2nc(-c3ccccc3)nn12 | · | i | 0.99 | · | · | 118 | ·
COc1ccc(NC(=O)C/C(C)=N/NC(=O)c2ccncc2)c([N+](=O)[O-])c1 | · | i | 0.87 | · | · | 99 | -6
O=C(CSc1nc2c(sc3ccccc32)c(=O)n1CCCN1CCOCC1)NCC1CCCO1 (configuration not stated) | · | i | 1 | · | · | 97 | -1
CC(=O)N/C(=C\c1ccc(F)cc1)C(=O)NC(Cc1c[nH]c2ccccc12)C(=O)O (configuration not stated) | -0.4 | · | · | · | · | 103 | -15

An excerpt from above in order of heavy-atom count, rising.
SMILES | GALR2 ag | HSV augment | HSV augment primary fold | Insulin prom inh | Insulin prom inh cell count | RGS16-Gao HTS | PKD1 inh
O=c1[nH]c(/C=C\c2cccnc2)c([N+](=O)[O-])c(=O)[nH]1 | · | i | 1.1 | · | · | 93 | -6
Cc1ccc(C)c(NC(=O)Cc2ccc(S(=O)(=O)N3CCCCC3)s2)c1 | -1.7 | i | 0.79 | · | · | 149 | 2
CCSc1nnc(-c2cccc(S(=O)(=O)N(C)C)c2)n1-c1cc(OC)ccc1OC | -2.8 | i | 0.93 | 16 | 95 | 100 | -11

This is a random part of the collection. About 1.3% of those tested had a hit in this group.
